D2 PAM: potentiates the human D2 dopamine receptor allosterically | DiscoveRx D2 beta-arrestin cells, luminescence, 90 min; 100% = 57 uM dopamine signal | potentiation, % (test concentration not listed) | 360,000 tested, 0.23% active | AID 624464; active = potentiation of 50% or more; inconclusive = 30% to 50%; inactive = 30% or less;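 note: compound concentration not given in the record; tested on top of an EC20 dose of dopamine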
Target sequence (P14416 whole entry, looked up): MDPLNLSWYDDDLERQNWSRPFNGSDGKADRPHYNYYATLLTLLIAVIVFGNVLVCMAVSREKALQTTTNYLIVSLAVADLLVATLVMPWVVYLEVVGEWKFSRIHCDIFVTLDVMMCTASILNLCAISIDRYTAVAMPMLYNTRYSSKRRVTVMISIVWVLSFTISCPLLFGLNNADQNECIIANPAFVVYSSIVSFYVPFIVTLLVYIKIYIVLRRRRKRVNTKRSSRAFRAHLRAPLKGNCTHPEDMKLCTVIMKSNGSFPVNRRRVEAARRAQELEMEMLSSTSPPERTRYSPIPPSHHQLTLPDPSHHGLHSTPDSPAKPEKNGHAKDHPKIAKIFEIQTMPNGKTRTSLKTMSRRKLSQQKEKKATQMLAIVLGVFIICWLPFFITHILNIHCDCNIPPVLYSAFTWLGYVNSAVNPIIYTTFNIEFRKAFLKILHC
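D2 cells co-treated with compound plus 50 nM dopamine (EC20) for 90 min at 37 deg C to detect potentiation. Beta-arrestin recruitment was read as enzyme-fragment luminescence after 1 h at ambient temperature. Full response was set by 57 uM dopamine.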
CtBP-E1A blk: blocks the CtBP interaction with E1A; activity change, % (concentration not given with the values); 340,000 tested, 0.49% active; AlphaScreen GST-E1A/His-CtBP binding, 1536-well; hits give low values; control for the full effect not named in the record; AID 651724; in the data active means activity change below about -65%; inconclusive means about -30% to -65%; inactive means above about -30%; note: % is set by controls: 0 for no effect and ±100 for the full control effect
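AlphaScreen with 125 nM GST-E1A and 125 nM His-CtBP (5X stocks) in Tris pH 8.0, 300 mM NaCl, BSA, Tween 20, TCEP. Compounds preincubated 2 h at 37 deg C, then glutathione donor/nickel acceptor beads added for 1 h at 37 deg C in dark.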
Six1-Eya2 blk: blocks human Six1 binding to Eya2; AlphaScreen GST-Six1/His-Eya2 binding, biochemical; hits give low values; control for the full effect not named in the record; 360,000 tested, 0.56% active; activity change, % (concentration not given with the values); AID 651725; in the data active = activity change below about -65%; inconclusive = about -30% to -65%; inactive = above about -30%; note: % is set by controls: 0 for no effect and ±100 for the full control effect
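Homogeneous AlphaScreen proximity assay pairing GST-Six1 with His-tagged Eya2 (added as 5X mix: 250 nM and 500 nM) in 50 mM Tris pH 8.0, 300 mM NaCl, 1 mM TCEP. Glutathione donor and nickel acceptor beads; 1 h, 37 °C, dark.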
gsp agonist: activates gsp, the McCune-Albright syndrome mutation; gsp mutant cells, cAMP HTRF, 30 min; control for the full effect not named in the record; Potency, µM (highest dose often 76.9 µM), inactives show at the top dose activation (cAMP increase), most hits filed as activators; 340,000 tested, 0.13% active; AID 624287; active = well fitted activation curve with a large enough effect; inconclusive = small, poorly fitted or top-dose-only effect, or another doubt; inactive = no such curve, though single readings can be large or run the other way; cell line not stated here;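 note: phosphodiesterase inhibitor Ro 20-1724 added with compounds to block cAMP breakdown; potency is the fitted concentration of half-maximal effect; nearly all actives have a fitted effect of over 60% in size; about a fifth of the inactives were tested at one dose only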
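Cells stably selected in G418 were plated at 2000/well, grown 16-24 hr, then given compounds in DMSO with the PDE inhibitor […] (300 uM solution added) for 30 min at 37C; cAMP was read by HTRF.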
gsp antag: antagonizes gsp, the McCune-Albright syndrome mutation | gsp-mutant cells, cAMP HTRF, 30 min; control for the full effect not named in the record | Potency, µM (top dose mostly 76.9 µM), without a hit: at the top dose activity change, negative = inhibition, usual class: inhibitors | 340,000 tested, 0.4% active | AID 624288; active = falling curve of any shape with a large fitted effect; inconclusive = falling curve, mostly with a smaller effect; inactive = flat or rising curve; cell line not stated here;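 note: intracellular cAMP measured with PDE inhibitor Ro 20-1724 present during compound exposure; potency is the fitted concentration of half-maximal effect; % is set by controls: 0 for no effect and ±100 for the full control effect; nearly all actives have a fitted effect of over 65% in size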
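Measurement of cellular cAMP by homogeneous time-resolved fluorescence following a 30 min compound exposure at 37C. The PDE inhibitor […] was present throughout; the assay buffer was DPBS with 0.05% BSA and 0.005% Tween 20.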
D2 ag: activates the human D2 dopamine receptor | DiscoveRx PathHunter D2 beta-arrestin, luminescence, 90 min; 100% = 57 uM dopamine signal | activation, % (no concentration beside the values) | 360,000 tested, 0.084% active; in the data active = activation above about 40%; inconclusive = about 15% to 40%; inactive = below about 15%; note: compound concentration not given in the record; the text of the record calls up to 30% inactive
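Agonist mode: compounds alone added to overnight-plated D2 PathHunter cells for 90 min at 37 C, with 57 uM final dopamine (EC100) defining full response. Beta-arrestin recruitment detected by chemiluminescent reagent, read after 1 h at ambient temperature.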
* hit, by the source's call; ? = inconclusive; / = not tested or not shown; [ ] = another dose, or the depositor's remark.

SMILES	D2 PAM	CtBP-E1A blk	Six1-Eya2 blk	gsp agonist	gsp antag	D2 ag
CCN1CCN(Cc2ccc(NC(=O)Nc3ccc(SC)cc3)cc2)CC1	-16.8	-19.7	-16.4	-15.8%	5.9%	2.7
CCOC(=O)c1c(NC(=O)CSc2nncs2)sc(C)c1C	-26.4	0.1	7.7	22.2%	2.2%	-0.7
C=CC12C=CC=CN1C(C(=O)OC)=C(C(=O)OC)C(C(=O)OC)=C2C(=O)OC (stereo not drawn)	-14.9	-21.2	-8.0	-38.0%[inhibitor]	3.2%	-1.7
COC(=O)[C@]1(Cc2ccccc2)N[C@H](CN(C)S(=O)(=O)c2ccc(OC)cc2)[C@@H]2C(=O)N(C)C(=O)[C@@H]21	/	1.9	-0.2	/	-8.2%	-0.2
COc1ccc(NC(=O)c2cc(-c3ccccc3O)n[nH]2)cc1Cl	-1.1	3.9	19.7	7.4%	12.6%	-3.1
CC(C(=O)Nc1ccc2c(c1)OCCO2)n1nnc(-c2ccccc2)n1 (stereo not drawn)	-2.2	3.2	4.1	?	-3.6%	-2.5
O=C(C[n+]1cn(C(F)F)c2ccccc21)c1ccc(OC(F)F)cc1	-7.7	19.8	-1.0	-8.7%[15.4 µM]	16.0%	-1.6
COc1ccccc1NC(=O)c1cc(C(=O)O)ccc1C(=O)O	-3.1	6.8	-3.0	-0.5%	-0.2%	-2.3
Cc1nc(-c2c(-c3ccc(O)cc3O)noc2C(F)(F)F)cs1	22.7	-1.1	-4.3	-2.9%	3.3%	-1.8
Cc1ncc([N+](=O)[O-])n1CC(O)CCl (stereo not drawn)	-2.6	2.4	3.9	/	-1.8%	-1.1
O=S(=O)(Cc1ccccc1Cl)N1CCCC1	-0.7	-78.7*	2.2	0.7%[15.4 µM]	10.6%	-2.9
CCCCCN=CC1=C(O)CC(c2ccccc2)CC1=O (stereo not drawn)	-8.2	15.4	6.4	6.8%[15.4 µM]	-4.1%	1.0
O=C(NNC(=O)C1CCN(Cc2cccc(F)c2)CC1)c1cccc(Cl)c1	-5.5	-3.2	-13.9	?	2.0%	-0.4
CCOC(=O)c1c(NC(=S)Nc2ccccc2)sc2c1CCN(C)C2	-34.1	-10.7	-13.3	7.2%	-8.8%	-3.7
CCCCN(C(=O)C1CC1)C1CCS(=O)(=O)C1 (stereo not drawn)	-11.0	1.1	9.6	11.6%[15.4 µM]	7.2%	-0.8
CCOc1ccc(C2/C(=C(\O)c3c(C)[nH]c(C(=O)OC)c3C)C(=O)C(=O)N2CCN(C)C)cc1 (stereo not drawn)	-2.6	-5.0	-8.9	?	0.1%	-1.2
CCn1cc(C(=O)N(CCCN2CCOCC2)Cc2ccco2)c(=O)c2ccc(C)nc21	1.4	3.0	-1.7	26.6%	11.0%	-2.6
CCc1ccc2nc(N(CCCN(C)C)C(=O)c3ccc(S(=O)(=O)N4CCc5ccccc5C4)cc3)sc2c1	-9.8	-6.4	3.8	0.8%[15.4 µM]	13.8%	3.9
CCc1cccc(CC)c1NC(=S)NC(C)c1ccccc1 (stereo not drawn)	-5.4	/	3.1	-38.5%[inhibitor]	0.8%	-7.1
O=C(Nc1ccc2[nH]ncc2c1)c1ccccc1	-2.5	1.8	-1.4	-37.7%[inhibitor]	8.6%	-2.5
O=C(c1ccc(S(=O)(=O)N2CCCCCC2)cc1)N1CCCC(C(F)(F)F)C1 (stereo not drawn)	-21.1	0.8	2.4	0.5%	0.5%	1.4
O=C1CCCC2=C1C(c1ccsc1)CC(=O)N2c1nnc(SCc2ccccc2)s1 (stereo not drawn)	-1.0	-1.2	-6.8	?	1.4%	-1.3
COc1ccc(Nc2cc(C(=O)NCCCN3CCOCC3)c3ccccc3n2)c(OC)c1	-19.0	-10.7	-9.1	1.5%	-24.1%	-2.4
CC[n+]1c(C)sc2c(C)cc(C)cc21	-13.5	1.6	0.7	-9.5%	13.5%	-3.8
Cn1c(Cc2ccccc2)n[nH]c1=S	2.0	-4.8	4.3	-35.7%[inhibitor]	10.7%	2.5
The listing continues:
SMILES	D2 PAM	CtBP-E1A blk	Six1-Eya2 blk	gsp agonist	gsp antag	D2 ag
OC(COCC(F)(F)C(F)(F)C(F)(F)C(F)F)Cn1c2ccc(Cl)cc2c2cc(Cl)ccc21 (stereo not drawn)	?	25.7	9.3	-20.4%	-31.8%	2.0
Fc1ccccc1C1c2[nH]c3ccccc3c2CCN1CCCn1cccn1 (stereo not drawn)	-6.7	-1.5	-10.8	-0.7%	3.0%	-1.1
Cc1noc(C)c1-c1ccc(C(=O)NCCN2CCOCC2)c2occc12	-8.9	-8.7	0.9	/	/	-4.3
CCOC(=O)c1ccc(Nc2cc(C)nc(N3CCOCC3)n2)cc1	-7.2	-20.1	-20.5	-0.5%	?	-2.8
Oc1ccc(Nc2nc(-c3ccccc3O)nc3ccccc23)cc1	-11.5	/	-12.9	-1.1%	?	-0.5
Cc1cc(C)nc(SCC(=O)c2c(N)n(C)c(=O)n(C)c2=O)n1	-5.7	-10.1	-6.9	?	23.7%	-2.2
Cc1c(C)n(Cc2ccc(F)cc2)c2ccc(C(=O)NCCCN3CCOCC3)cc12	-34.8	-24.3	-18.1	-5.6%	-5.2%	-6.5
CCn1c(=NC(=O)c2cccc(N3C(=O)CCC3=O)c2)sc2c(OC)ccc(OC)c21	-6.6	7.7	-1.1	-1.2%	11.3%	-3.1
O=C(NCCCO)c1nnc(Cc2c(F)cccc2Cl)o1	0.9	-9.9	-0.8	-36.7%[inhibitor]	11.9%	-2.8
CCc1sc(C(=O)NCCCN2CCCC2=O)cc1Br	-24.9	-0.2	-0.8	17.2%	0.4%	-6.1
CCN(Cc1ccccc1)c1ccc(/C=N/NC(=S)NC(C)C)cc1	-24.8	-0.8	-21.9	-29.0%	5.1%	-5.7
Fc1ccc(C2CC(c3ccco3)=Nc3ccccc3S2)cc1 (stereo not drawn)	-93.6	/	-24.2	?	-26.3%	-0.3
CN(CC(=O)Nc1cccnc1)S(=O)(=O)c1ccccc1	1.0	3.0	2.3	-9.0%	6.0%	-0.4
CSCCNC(=O)c1ccc(C(C)(C)C)cc1	-26.7	-0.3	3.0	1.2%	11.3%	1.0
Nc1ccc(/C=C/C(=O)c2cccs2)cc1	-2.1	-0.6	9.9	17.5%[15.4 µM]	3.2%	1.4
C=CCOC(=O)C1=C(C)OC(N)=C(C#N)C1c1ccoc1 (stereo not drawn)	-15.2	4.4	2.0	35.6%	-0.2%	-4.3
Cc1ccc([N+](=O)[O-])cc1NC(=S)NC(=O)c1c(Cl)cnn1C	7.5	3.6	15.0	-16.5%	-0.1%	1.1
Cc1c(Cl)cnc(NC(=O)COC(=O)C2CCCC2)c1Cl	-2.4	2.6	-0.8	18.3%	-13.2%	1.8
COCCNc1nc(N)c([N+](=O)[O-])c(NCCO)n1	-7.2	-2.6	4.1	6.7%[15.4 µM]	12.1%	-0.9
C=CCNC(=S)NNC(=O)c1cccn(Cc2ccc(Cl)cc2)c1=O	-13.7	?	-12.4	1.1%	15.0%	-0.4
CCCCCc1ccc(-c2cn(Cc3ccc(C(=O)c4ccccc4)cc3)nn2)cc1	-5.3	9.2	12.8	22.5%	11.0%	-2.5
Cc1cc(C)c(C#N)c(SCC(O)CS(=O)(=O)Cc2ccccc2)n1 (stereo not drawn)	3.1	-5.5	-7.9	26.2%	-9.7%	-2.4
O=C(NCCc1c[nH]c2ccccc12)c1cc(S(=O)(=O)N2CCCCC2)ccc1N1CCOCC1	17.5	5.3	-9.6	3.7%	-13.6%	-0.8
O=C(c1[nH]c(C(F)(F)F)nc1-c1ccccc1)N1CCCN(Cc2ccc(F)cc2)CC1	-7.7	-4.5	-6.7	/	/	-2.0
CC(NC(=S)Nc1ccccc1Cl)C(c1cccs1)N1CCCC1 (stereo not drawn)	-9.8	-6.8	-10.9	-43.3%[inhibitor]	5.9%	-6.3

Structures shown so far with a CF3 group (3):
SMILES	D2 PAM	CtBP-E1A blk	Six1-Eya2 blk	gsp agonist	gsp antag	D2 ag
Cc1nc(-c2c(-c3ccc(O)cc3O)noc2C(F)(F)F)cs1	22.7	-1.1	-4.3	-2.9%	3.3%	-1.8
O=C(c1ccc(S(=O)(=O)N2CCCCCC2)cc1)N1CCCC(C(F)(F)F)C1 (stereo not drawn)	-21.1	0.8	2.4	0.5%	0.5%	1.4
O=C(c1[nH]c(C(F)(F)F)nc1-c1ccccc1)N1CCCN(Cc2ccc(F)cc2)CC1	-7.7	-4.5	-6.7	/	/	-2.0

Other entries
SMILES	D2 PAM	CtBP-E1A blk	Six1-Eya2 blk	gsp agonist	gsp antag	D2 ag
COc1ccc(NC(=O)COC(=O)CO/N=C(\C)c2ccc3c(c2)OCO3)cc1S(N)(=O)=O	-3.2	0.7	-0.5	-14.5%	4.8%	4.1
COc1cc(CNCCSc2nnnn2C)cc(Br)c1OCc1ccccc1	-14.4	7.7	0.1	?	-2.6%	0.7
COc1cc(C(=O)Nc2c(C(=O)O)[nH]c3ccccc23)cc(OC)c1OC	-8.6	-9.4	-7.6	?	14.9%	2.4
CCN(CC)S(=O)(=O)c1ccc(NS(=O)(=O)c2cccs2)cc1	9.6	7.0	-0.7	-8.5%	-3.0%	4.7
O=S(=O)(c1ccc(N2CCC(c3ccc(Cl)cc3)=N2)cc1)N(CCO)CCO	-8.4	44.7	38.2	?	17.0%	-2.8
CCc1ccc(N=c2c([N+](=O)[O-])nn(-c3ccc4c(c3)OCCO4)n2O)cc1	?	?	-22.4	11.5%[15.4 µM]	-4.5%	10.7
COc1ccc2c(c1)cc1n2CCN=C1NN	-2.8	24.2	4.8	?	5.9%	-3.7
CCN1CCc2nc(NC(=O)c3cc(F)c(F)cc3Cl)sc2C1	-3.6	1.2	8.5	8.6%[15.4 µM]	2.4%	-3.9
O=C(CCCC(=O)N(CC(=O)NC1CCCCC1)c1cccc(F)c1)Nc1ccccn1	-2.4	8.6	3.4	-4.5%[15.4 µM]	-9.4%	-1.0
CC(Oc1ccccc1Cl)C(=O)N1CCOCC1 (stereo not drawn)	-3.9	4.4	-2.5	6.8%[15.4 µM]	-7.9%	-5.5
O=C(COc1ccc([N+](=O)[O-])cc1)NN=C1CCCC1	3.3	5.0	2.7	-6.1%	5.7%	1.0
Cn1c(CCN2CCOCC2)nc2cc(NC(=O)c3cccs3)ccc21	3.5	0.0	-16.8	-10.5%[15.4 µM]	-5.1%	5.2
Cn1nnnc1SCC(=O)N1CCN(c2ccc(Cl)cc2)CC1	-7.9	4.4	-7.1	3.7%	6.7%	1.6
COc1ccc(C(=O)NNC(=O)c2cccc3ccccc23)cc1	-5.6	-2.9	1.7	1.1%	0.6%	-1.4
COc1cc(/C=N/N2CCOCC2)ccc1OCc1ccccc1	0.1	-5.0	-5.1	-11.1%[15.4 µM]	-3.4%	-4.3

Source: PubChem BioAssay
